Mtb betalactam – beta-lactam sensitization of Mtb H37Rv | M. tuberculosis H37Rv growth with meropenem, percent inhibition; hits of this screen are not shown here | inhibition, % at 25 µM | 330,000 compounds, 0.27% hits;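 active = about 74% or more and at least 40 points above the plate without the antibiotic, then above 30% in a dose series; inconclusive = first-round hits that could not be retested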;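 also: growth measured after seven days incubation then overnight dye step; 0% = bacteria only wells and 100% = bacteria with antibiotic; twin plates without the antibiotic show which effects depend on it; some results filed as inactive read as strong as hits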
YopH PTP inh – inhibitors of Yersinia enterocolitica YopH tyrosine phosphatase. fluorescence Ex485/Em525. inhibition, %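 (about 10 µM by stock and volumes)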. 140,000 compounds, 0.16% hits. AID 898;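 active = inhibition of 50% or more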;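 also: controls were vehicle for no effect and minimum signal wells for full effect; inactives centre near -20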
Mtb H37Rv – M. tuberculosis H37Rv growth inhibitors, H37Rv strain (AID 1626); 220,000 compounds, 0.95% hits; one-dose inhibition, % at 10 µM; IC50 in µM for titrated hits; M. tuberculosis H37Rv growth inhibition; higher % means a stronger effect;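 active = confirmed in a dose series; inconclusive = inhibition above 80% but not taken into the dose series; inactive = below 80% or under 30% at every dose of the series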;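 also: bacteria incubated seven days before Alamar blue readout; 0% = bacteria only wells and 100% = bacteria with antibiotic wells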
Arbovirus inh – antivirals against arbovirus infection | arbovirus infection cell-based antiviral screen | inhibition, % at 10 µM | 200,000 compounds, 0.37% hits;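 active = inhibition from about 30%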;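 also: bluetongue infection of BSR cells; cell survival read as ATP light after 72 h; 0% = infected wells without compound and 100% = uninfected wells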
RecA splice inh – Mtb RecA intein splicing inhibition; 290,000 compounds, 0.75% hits; cell-free RecA intein splicing, fluorescence; P9WHJ3; inhibition, %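 (about 9 µM by stock and volumes)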; in the data active = inhibition above about 30%; inconclusive = no clear call, values can overlap the other calls;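 also: 0% = vehicle wells and 100% = reference inhibitor control wells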
Target sequence (P9WHJ3 whole entry, looked up, canonical isoform): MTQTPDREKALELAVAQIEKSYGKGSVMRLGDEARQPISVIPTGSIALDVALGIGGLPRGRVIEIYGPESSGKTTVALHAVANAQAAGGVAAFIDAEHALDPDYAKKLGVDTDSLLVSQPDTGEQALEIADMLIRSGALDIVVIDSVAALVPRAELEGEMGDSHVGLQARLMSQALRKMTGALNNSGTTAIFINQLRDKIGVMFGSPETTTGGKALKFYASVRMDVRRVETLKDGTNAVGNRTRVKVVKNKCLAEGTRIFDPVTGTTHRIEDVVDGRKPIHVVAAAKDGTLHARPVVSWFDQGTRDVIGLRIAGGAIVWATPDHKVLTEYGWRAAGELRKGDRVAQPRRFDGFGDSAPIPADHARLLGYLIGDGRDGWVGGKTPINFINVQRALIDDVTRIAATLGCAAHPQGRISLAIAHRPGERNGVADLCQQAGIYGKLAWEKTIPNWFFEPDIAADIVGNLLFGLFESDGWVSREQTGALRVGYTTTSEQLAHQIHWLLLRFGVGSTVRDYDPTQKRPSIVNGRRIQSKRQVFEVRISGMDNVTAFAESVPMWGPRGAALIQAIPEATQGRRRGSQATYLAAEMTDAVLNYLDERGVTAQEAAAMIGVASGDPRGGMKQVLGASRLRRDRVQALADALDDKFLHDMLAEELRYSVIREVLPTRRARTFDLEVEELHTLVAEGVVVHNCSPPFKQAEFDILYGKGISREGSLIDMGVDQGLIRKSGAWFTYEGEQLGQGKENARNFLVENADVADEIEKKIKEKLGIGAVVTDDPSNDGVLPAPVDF
Arbovirus inh repeat – further read-out of Arbovirus inh, marked with its call; inhibition, %; measured here: 10K subset replicate screen; many hits read low in the repeat;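 first of two repeat runs on a subset; 0% = infected and 100% = uninfected wells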
Starred values were filed as active, the others as inactive; ? = inconclusive; · = no result given. Only part of the results is shown; rates above refer to the full screens.

SMILES	Mtb betalactam	YopH PTP inh	Mtb H37Rv	Arbovirus inh	RecA splice inh	others
O=C(CN1C(=O)NC2(CCCC2)C1=O)Nc1cccc(-c2nnc3n2CCCCC3)c1	1	-31	-2%	-4	-4.2
O=S(=O)(c1cc(F)ccc1F)N1CCN(C2CCCCC2)CC1	-20	·	·	·	1.1
Cc1cc(C)cc(N(C(=O)c2ccc(Br)o2)C2C=CS(=O)(=O)C2)c1 (stereo not given)	-3	·	-1%	6	0.6
O=C1COc2ccc(S(=O)(=O)CCC(=O)N3CCN(c4cccc(C(F)(F)F)c4)CC3)cc2N1	4	·	·	·	-1.1
COc1ccc(N2CCN(S(=O)(=O)CCNC(=O)COc3ccccc3)CC2)cc1	-7	·	·	·	-3.0
COC(=O)c1c(NC(=O)c2cccc([N+](=O)[O-])c2)sc(C(N)=O)c1C	-1	·	11%	-23	-6.2
COc1ccc(-c2ncccc2OC(=O)C23CC4CC(CC(C4)C2)C3)cc1OC	7	-3	4%	-5	5.5
O=C(COc1ncnc2ccccc12)Nc1cc([N+](=O)[O-])ccc1F	-10	·	·	·	-0.9
N/C(=N\OC(=O)c1ccc(F)cc1)c1cccc([N+](=O)[O-])c1	72	·	·	·	1.4
CCOC(=O)c1cnc2c(c(C)nn2C)c1Oc1ccc(Cl)cc1	20	-26	15%	7	7.9
Cc1ccc(Nc2nnc(SCC(=O)Nc3ncc(S(=O)(=O)c4ccc([N+](=O)[O-])cc4)s3)s2)cc1	-5	10	0%	-24	-0.5
Cc1cc(OCC(=O)N2CCC(C(=O)NCC(C)C)CC2)c2c3c(c(=O)oc2c1)CCCC3	3	·	·	·	0.9
CCOC(=O)N1CCN(S(=O)(=O)c2ccc3c(c2)SCC(=O)N3)CC1	-6	-25	·	0	-1.6
COc1ccc(-c2n[nH]c3c2CN(C(=O)c2ccccc2)CC3)cc1	-2	·	·	·	1.9
Cc1ccc(C(=O)COc2cccc(NC(=O)c3ccco3)c2)cc1	2	16	6%	-5	7.2
Cc1cc(OCC(=O)N2CCC(O)CC2)c2c(C)cc(=O)oc2c1	0	·	·	·	-2.4
O=C(Nc1ccc2oc(-c3ccccc3)nc2c1)c1cccnc1	71	-8	7%	-6	-1.5
Cc1ccc(O)c(C(=O)c2cc(C#N)c3nc4ccccc4n3c2)c1	0	·	11%	3	-9.5
O=C(NCc1cccnc1)c1ccc(NC(=O)c2ccco2)cc1	5	-27	-5%	-1	-1.4
O=C1CCCC/C1=C\Nc1ccc(S(=O)(=O)Nc2cnc3ccccc3n2)cc1	13	·	-6%	·	-0.5
COc1ccc(/C=N/OCC(=O)NCc2cccs2)c(OC)c1	0	-45	-2%	-5	-0.2
CC(=O)c1cccc(NC(=O)c2cc(S(=O)(=O)N3CCOCC3)cs2)c1	-5	·	·	·	-1.1
CCCC(=O)C1=C(O)C(C(=O)OC)C(C)(C)CC1=NC (stereo not given)	-4	-8	-5%	6	-0.1	Arbovirus inh repeat=0
CC(=O)c1cccc(NC(=O)Cn2cnc(S(=O)(=O)N3CCC(C)CC3)c2)c1	2	·	·	·	-1.8
CC(=O)C1=C(Nc2ccccc2)CC(C)(O)C(C(C)=O)C1c1ccccc1 (stereo not given)	-7	·	-11%	·	0.9

Grouped by structure, those above containing two or more sulfur atoms.
SMILES	Mtb betalactam	YopH PTP inh	Mtb H37Rv	Arbovirus inh	RecA splice inh	others
Cc1ccc(Nc2nnc(SCC(=O)Nc3ncc(S(=O)(=O)c4ccc([N+](=O)[O-])cc4)s3)s2)cc1	-5	10	0%	-24	-0.5
CCOC(=O)N1CCN(S(=O)(=O)c2ccc3c(c2)SCC(=O)N3)CC1	-6	-25	·	0	-1.6
CC(=O)c1cccc(NC(=O)c2cc(S(=O)(=O)N3CCOCC3)cs2)c1	-5	·	·	·	-1.1

Other records.
SMILES	Mtb betalactam	YopH PTP inh	Mtb H37Rv	Arbovirus inh	RecA splice inh	others
O=C(O)CNC(=O)/C(=C/c1ccco1)NC(=O)/C=C/c1ccccc1	-3	-32	-4%	-4	1.5
O=C(CNC(=O)c1ccc(Cl)cc1)Nc1ccc(Br)cc1C(=O)c1ccccc1	3	-29	-10%	2	-1.4
CN(C)S(=O)(=O)c1ccc(C(=O)NCc2nnc(SCC(=O)N3CCCCCC3)o2)cc1	?	·	·	·	1.1
CN(C)C(=O)Oc1ccc2oc(=O)cc(-c3cc4ccccc4o3)c2c1	7	·	·	·	-0.7
O=C(O)c1c(NC(=O)N2CCOCC2)sc2c1CCCC2	-2	·	·	·	-5.6
Cc1cc(C)c(S(=O)(=O)Nc2ncccc2C)c(C)c1	-4	·	·	·	0.4
CCN(CC)c1ccc([N+](=O)[O-])cc1C(=O)O	-2	5	-27%	0	2.7
Cc1ccc(NC(=O)CSc2ncnc3ccccc23)cc1S(=O)(=O)N1CCCCCC1	12	-23	10%	5	31*
COc1cc(C#N)c(NC(=O)CN2CCC(C(N)=O)CC2)cc1OC	-7	·	7%	0	-1.1
C=CC1CN2CCC1CC2c1[nH]c2ccccc2c1CCO (stereo not given)	3	-11	-7%	8	1.0
CCN(CC)CCNc1ccc2nnc(CCNS(=O)(=O)c3ccc(C)cc3)n2n1	0	·	-8%	20	·
CCOC(=O)c1ccc(NC(=O)C2CC(=O)N=C(N)S2)cc1 (stereo not given)	-1	·	1%	5	-0.4
CCCCCOc1ccc(NS(C)(=O)=O)cc1	-3	-28	·	1	-2.0
CCOc1ccc(Nc2nc(N)nc(CSC(=S)N3CCOCC3)n2)cc1	-3	·	20%	·	-1.0
O=C(COc1ncnc2ccccc12)N1CCN(C(=O)c2ccco2)CC1	-8	-55	4%	1	-0.9
CCN(CC)S(=O)(=O)c1cc(C(=O)Oc2cccc(-c3cnc4ccccc4n3)c2)ccc1Br	98	-10	?	1	-0.3
CCCOc1ccc([N+](=O)[O-])c(N)c1	-2	-30	4%	-2	1.8
Cc1ccc(C(=O)NNC(=O)c2ccncc2)cc1S(=O)(=O)N1CCOCC1	4	·	·	·	-1.8
COCCNC(=O)Cn1nc(-c2ccc(C)cc2)c2ccccc2c1=O	7	·	·	·	1.1
CC(=O)c1cccc(NS(=O)(=O)N2CCOCC2)c1	0	·	·	·	-0.4
O=C(NCCc1c[nH]c2ccccc12)/C(=C\c1cccnc1)NC(=O)c1ccco1	0	-30	-2%	5	-2.2
O=C(CN(c1cccc(Cl)c1)S(=O)(=O)c1ccc(Cl)cc1)N1CCc2ccccc2C1	-4	-6	6%	-5	-1.9
CC(=O)O[C@H]1c2ccccc2-c2ccccc2[C@@H]1OC(C)=O	-1	·	·	·	1.2
COc1cc(NC(=O)CCNC(=O)Cn2ccc3ccccc3c2=O)cc(OC)c1OC	-1	·	·	·	-1.3
COc1ccccc1C(=O)N(Cc1ccc(Cl)cc1)C1CCS(=O)(=O)C1 (stereo not given)	8	·	·	·	0.9
Further entries:
SMILES	Mtb betalactam	YopH PTP inh	Mtb H37Rv	Arbovirus inh	RecA splice inh	others
O=C(Nc1cc(S(=O)(=O)Nc2ccccc2Cl)ccc1O)c1cc2c(s1)CCCC2	-7	·	·	·	0.6
CCOC(=O)c1cnc2c(C)c(C)ccc2c1Nc1ccc(S(=O)(=O)Nc2ncccn2)cc1	-10	-19	-15%	-3	-0.8
Cc1nc2ccc(NC(=O)COc3ccccc3)cc2s1	·	·	83%	13	2.0
Cc1noc(C)c1S(=O)(=O)N1CCCC(C(=O)NCc2ccccc2Cl)C1 (stereo not given)	1	·	·	·	-1.5
COc1ccc(C(CNC(=O)COc2cc(C)ccc2Cl)N2CCCCC2)cc1 (stereo not given)	-4	·	·	·	-1.8
O=C(Nc1cccnc1)c1coc(=O)c2ccccc12	-4	-32	-8%	9	-0.4
O=C(O)c1cccc(NC(=S)NC(=O)c2ccc(-c3ccc(Cl)cc3)o2)c1	2	·	?	35*	1.4
COc1ccc(-c2cc(C(=O)Nc3ccc(C)c(C)c3)no2)cc1	12	·	·	·	1.5
C[C@@H](C(=O)NCc1ccccn1)[C@@H]1C[C@@]1(C)[C@@H](NC(=O)OCc1ccccc1)c1ccccc1	-5	-7	0%	-5	0.4
O=C(N/N=C/c1ccc[nH]1)c1cccnc1	4	3	-1%	-5	-0.2
COC(=O)CCNC(=O)c1ccc2nc(Cc3ccc(OC)cc3)oc2c1	0	·	·	·	-4.0
CC(C)c1ccc(NC(=O)Cc2c(C(=O)O)n(C)c3ccccc23)cc1	-2	·	·	·	-0.2
COc1ccc2c(c1)cc1n2CCN=C1N	-9	-54	-1%	-9	-1.8
CCn1c(SCC(=O)Nc2ccc3c(c2)oc2ccccc23)nnc1-c1ccc(N)cc1	96	-1	6%	-14	·
O=c1onc(-c2ccccc2Cl)n1-c1ccccc1Cl	-1	·	·	·	-1.6
Clc1ccc2nc(CSc3ccccc3)cn2c1	5	·	4%	-14	1.9
CCOc1ccc(C(=O)Nc2nnc(S(=O)(=O)N(C)Cc3ccco3)s2)cc1	3	·	·	·	-2.3
C1CCN(c2nc3nonc3nc2NCC2CCOCC2)CC1	-6	·	-2%	-2	-16
CCOc1ccc2cc(S(=O)(=O)N3CCCCC3)ccc2c1	80	·	·	·	-0.2
O=C(COc1ccccc1-c1ccccc1)N/N=C/c1cccc2ccccc12	-9	-29	15%	-18	1.5
O=S(=O)(c1ccccc1)c1nc(-c2ccccc2)oc1N1CCCCC1	-2	-2	-3%	-7	-1.0
CC(C)C1NC(C(=O)O)Cc2c1[nH]c1ccccc21 (stereo not given)	7	·	·	·	-4.9
O=C(NCCCN1CCOCC1)C1CC(=O)N(C2CCCCC2)C1 (stereo not given)	-8	-42	-1%	1	-0.6
CC1CCCC(C)N1CCNC(=O)C1CCN(S(=O)(=O)N2CCCCC2)CC1 (stereo not given)	-6	-29	2%	-7	-2.5
CN1C(=O)N(C)C(=O)C(CCc2ccncc2)(CCc2ccncc2)C1=O	-3	·	-3%	1	-4.4

Continued (six carried over from the part before).
SMILES	Mtb betalactam	YopH PTP inh	Mtb H37Rv	Arbovirus inh	RecA splice inh	others
O=C(COc1ccccc1-c1ccccc1)N/N=C/c1cccc2ccccc12	-9	-29	15%	-18	1.5
O=S(=O)(c1ccccc1)c1nc(-c2ccccc2)oc1N1CCCCC1	-2	-2	-3%	-7	-1.0
CC(C)C1NC(C(=O)O)Cc2c1[nH]c1ccccc21 (stereo not given)	7	·	·	·	-4.9
O=C(NCCCN1CCOCC1)C1CC(=O)N(C2CCCCC2)C1 (stereo not given)	-8	-42	-1%	1	-0.6
CC1CCCC(C)N1CCNC(=O)C1CCN(S(=O)(=O)N2CCCCC2)CC1 (stereo not given)	-6	-29	2%	-7	-2.5
CN1C(=O)N(C)C(=O)C(CCc2ccncc2)(CCc2ccncc2)C1=O	-3	·	-3%	1	-4.4
CCN(C(=O)CN1C(=O)S/C(=C\c2cccc(OC)c2)C1=O)C1CCS(=O)(=O)C1 (stereo not given)	-4	·	·	·	4.2
COc1cccc(/C=C2/SC(=S)N(CCCC(=O)Nc3ccc(O)cc3)C2=O)c1	61	·	·	·	13
CCN1C(=O)N[C@@H](c2cccc(F)c2)C(C(=O)OC)=C1C	-7	·	-4%	·	1.8
CC(OC(=O)Cc1c[nH]c2ccccc12)C(=O)N(C)c1ccccc1 (stereo not given)	-9	·	·	·	1.6
Cc1ncc([N+](=O)[O-])n1CCOC(=O)c1cc(Cl)cc(Cl)c1N	9	6	10%	11	9.0
CCOc1ccc(CC(C(=O)NN)C(=O)NN)cc1CN(C)C	-2	-2	-9%	6	7.8
Cc1sc(/N=C/c2c(O)ccc3ccccc23)c(C#N)c1C	4	-12	·	7	1.4
O=C(c1ccccc1)c1ccc2nc(N3CCCCC3)c3nncn3c2c1	-6	-24	8%	-2	0.9	Arbovirus inh repeat=3
O=C(CN1CCc2ccccc21)NCc1ccccc1Cl	8	-2	15%	0	-0.8
O=C(CCc1ccccc1)Nc1cc(C(=O)O)cc(C(=O)O)c1	-4	·	-2%	0	-2.3
COc1ccc2nc(Nc3ccccc3)sc2c1	0	·	9%	0	-2.2
COc1ccc(OC)c(NC(=O)c2ccccc2NS(=O)(=O)c2cccc3cccnc23)c1	10	-40	-10%	5	0.8
CCCCc1nc(SCC(=O)Nc2cc(C)on2)n[nH]1	6	-35	5%	10	1.1
CSc1cccc(CN2CCC(Oc3ccc(C(=O)N4CCCCC4)cc3)CC2)c1	14	·	·	·	1.5
